Source: PubChem (several laboratories)
BJeLR viability: MLPCN primary cell-based screen for lethality selective to Ras in HRASV12 cells | BJeLR (HRASV12) viability, CellTiter-Glo ATP luminescence, 48 h; reference of the scale not given here | inhibition, % (test concentration not listed) | 300,000 tested, 0.17% active;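 active = replicate mean above 50%; inconclusive = above 50% but judged a plate artefact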;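 note: 50 nL library stock added to about 25 µL; numbers are from one replicate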
PrP 5UTR inh: inhibition of PrP 5' UTR reporter expression. inhibition, % (concentration not given with the values). 340,000 tested, 0.35% active. cell-based PrP 5' UTR mRNA reporter, plate reader;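 active = every replicate at 50% or more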;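 note: 0 = median of the neutral control wells; tested in H4 reporter cells; numbers are from one replicate; inactives centre near -14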
Sa RN4220 lethal: growth inhibition of S. aureus RN4220, primary screen, OD600; 16 h; inhibition, % (concentration not given with the values); 330,000 tested, 0.33% active; AID 1259311, 2017;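 active = z-score of -3 or lower and OD600 up to 0.18 on both plates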;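 note: plate controls were untreated cells for no effect and reference antibiotic for full effect; stock transfer was 100 nL into about 80 µL; one replicate is shown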
Mtb hypoxia inh: PubChem AID 1159583; fluorescence inhibition, % (concentration not given with the values); 300,000 tested, 0.1% active; M. tuberculosis hypoxia-regulated fluorescent reporter, fluorescence;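 active = 35 to 45% if threefold the growth effect, above 45% if 1.5-fold the growth effect; inactive = the rest, general growth blockers included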;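 note: wells of about 50 µL received 100 nL stock; 0% = vehicle wells and 100% = reference inhibitor wells; whole bacteria with a GFP reporter of the hypoxia response; strong numbers were not always called active; many hits fall short of the cut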
Sa ugtP lethal: growth inhibition of ugtP-null S. aureus, primary screen, RN4220 ugtP deletion, OD600; 16 h; some inactives read as strong as hits; growth inhibition, % (concentration not given with the values); 330,000 tested, 0.54% active; AID 1259309, 2017;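 active = z-score under -3 and OD600 up to 0.15 on both plates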;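 note: plate controls were untreated wells for no effect and antibiotic for full effect; wells of about 80 µL received 100 nL stock; the first replicate is given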
Bead autofluor: counter-screen for toxin protease inhibitors: compound fluorescence; compound autofluorescence counterscreen, microsphere flow cytometry; stronger effect = higher value; fluorescence intensity (test concentration not listed); 360,000 tested, 3.1% active;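 active = at least 3 SD above the mean of all compounds, about 16000 in these data; inconclusive = too few beads counted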;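 note: 100 nL of 1 mM stock went into each well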
Mtb hypoxia inh growth: further read-out of Mtb hypoxia inh, marked with its call; growth inhibition, %; measured here: M. tuberculosis growth (absorbance);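 0% = vehicle and 100% = reference antibiotic; read after six days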
Active calls of the source: *; u = inconclusive; x = not tested or not shown.

#1 O=C(CCCn1ncn2c(cc3occc32)c1=O)NCc1ccccc1F
#2 COCc1ccc(CN2CCC(C(=O)Nc3cccc(-c4cccc(Cl)c4)c3)CC2)o1
#3 COc1ccc(CC(=O)NCc2ccc3c(c2)cc(C)n3C)cc1OC
#4 O=C(CSCc1cnn(-c2ccccc2)c1-n1cccc1)NCc1cccnc1
#5 COc1ccc(CCSc2nnc(C3CCCCC3)n2N)cc1
#6 COc1cccc(C(=O)NNC(=S)NC2CCCCC2)c1
#7 Cn1c(=O)[nH]c(=O)c2c1nc(NC1CCCCC1)n2Cc1ccccc1
#8 COc1ccc(CCC(=O)NCCS(=O)(=O)N2CCN(c3ccccc3F)CC2)cc1
compound no.,1,2,3,4,5,6,7,8
BJeLR viability,-5,-2,0,x,-6,0,10,6
PrP 5UTR inh,6,-22,-11,-11,-7,-19,-22,-24
Sa RN4220 lethal,3.7,-12,5.3,7.3,-14,3.0,3.9,-0.4
Mtb hypoxia inh,12,4,11,-5,7,4,x,3
Mtb hypoxia inh growth,3,0,3,7,11,9,x,3
Sa ugtP lethal,4,-25,6,3,6,4,-6,2
Bead autofluor,5073,4878,2746,3127,2481,10444,4867,x

#9 Cc1c(Br)c([N+](=O)[O-])nn1CC(=O)N1CCN(C23CC4CC(CC(C4)C2)C3)CC1
#10 Cc1cccnc1NC(=O)C1CCCN(S(=O)(=O)c2ccc3c(c2)oc(=O)n3C)C1 (stereo unspecified)
#11 Cc1onc(-c2ccccc2)c1-c1n[nH]c(=S)n1-c1ccc(C(=O)O)cc1
#12 Cc1ccc(-n2c(SCn3nnc4ccccc4c3=O)nnc2-c2cccnc2)c(C)c1
#13 CCCCOc1ccc(C(=O)N/C(=C/C=C/c2ccccc2)C(=O)N2CCOCC2)cc1
#14 CC1CCN(S(=O)(=O)c2ccc3ncn(CC(=O)N(C)C4CCCCC4)c(=O)c3c2)CC1
#15 CCCCCCCCCC(=O)NNC(=O)c1c(O)c2ccccc2n(CCC)c1=O
#16 CC(C)CCNC1=NCCCCC1
compound no.,9,10,11,12,13,14,15,16
BJeLR viability,4,3,1,-17,-7,-8,-1,0
PrP 5UTR inh,-18,-11,-18,-15,-33,-2,-23,-31
Sa RN4220 lethal,0.0,0.8,12,7.6,1.3,7.7,76,1.0
Mtb hypoxia inh,-2,10,-4,-2,-15,-2,5,-1
Mtb hypoxia inh growth,-12,10,-2,10,-9,1,3,2
Sa ugtP lethal,7,13,4,-8,3,7,90*,4
Bead autofluor,6024,6068,2976,10446,2215,4232,2261,7475

#17 O=C(O)c1cn2c3c(ccc(Cl)c3c1=O)OCC2
#18 O=C(O)c1ccc(C=NNc2cccc(C(F)(F)F)c2)cc1
#19 CC1(C)Cc2c(C#N)c(NC3CCCCC3)nc(-c3ccco3)c2CO1
#20 O=C(Cc1cccs1)NCCS(=O)(=O)N1CCN(c2ccccc2F)CC1
#21 Cc1cc(NC(=O)CSc2nnc(-c3cccc(F)c3)n2N)no1
#22 O=C1CSc2ccccc2N1Cc1ccccc1F
#23 Cc1ccc(S(=O)(=O)N(C)C)cc1NC(=S)Nc1ccc2[nH]c(=O)[nH]c2c1
#24 COc1ccc(-c2ccc(SCC(=O)Nc3nccs3)nn2)cc1OC
compound no.,17,18,19,20,21,22,23,24
BJeLR viability,5,x,-3,0,x,-8,0,-14
PrP 5UTR inh,13,x,-18,-14,-27,-37,-16,24
Sa RN4220 lethal,4.3,3.5,0.6,3.8,0.0,3.9,2.0,3.3
Mtb hypoxia inh,8,13,x,5,-1,2,13,-8
Mtb hypoxia inh growth,11,2,x,-2,2,-1,7,-9
Sa ugtP lethal,5,-6,8,5,7,6,3,0
Bead autofluor,3211,x,6146,u,3584,24057*,4008,3343

Laid out differently: 2 of the compounds above.
23: Cc1ccc(S(=O)(=O)N(C)C)cc1NC(=S)Nc1ccc2[nH]c(=O)[nH]c2c1
  BJeLR viability: 0
  PrP 5UTR inh: -16
  Sa RN4220 lethal: 2.0
  Mtb hypoxia inh: 13
  Mtb hypoxia inh growth: 7
  Sa ugtP lethal: 3
  Bead autofluor: 4008
22: O=C1CSc2ccccc2N1Cc1ccccc1F
  BJeLR viability: -8
  PrP 5UTR inh: -37
  Sa RN4220 lethal: 3.9
  Mtb hypoxia inh: 2
  Mtb hypoxia inh growth: -1
  Sa ugtP lethal: 6
  Bead autofluor: 24057*

(further entries)
#25 CC(C)NC(=O)c1ccc2c(c1)nnn2C
#26 CC1CC1C(=O)N1CCN(S(=O)(=O)c2cccc(F)c2)CC1 (stereo unspecified)
#27 CC(C)[C@H](NC(=O)c1ccccc1)C(=O)Nc1cccc(S(=O)(=O)N2CCOCC2)c1
#28 COc1ccc(N2CCN(C(=O)C3COc4ccccc4O3)CC2)cc1 (stereo unspecified)
#29 Cc1cc(Nc2ncc(Cl)cc2Cl)n(-c2ccccc2)n1
#30 COc1ccc(/C=C(\C#N)c2cc(OC)c(OC)cc2[N+](=O)[O-])cc1
#31 COc1cc(CNc2ccccc2)c([N+](=O)[O-])cc1OC
#32 CCC(C)(C(=O)NC1CCCC1)N(C(=O)Cc1cccs1)c1c(C)n(C)n(-c2ccccc2)c1=O (stereo unspecified)
compound no.,25,26,27,28,29,30,31,32
BJeLR viability,-3,3,x,10,8,1,3,19
PrP 5UTR inh,-4,-39,-12,-6,-14,-4,-13,-30
Sa RN4220 lethal,6.7,-0.2,1.2,1.9,-0.4,1.2,3.9,-1.2
Mtb hypoxia inh,4,8,-1,x,-2,10,10,1
Mtb hypoxia inh growth,4,6,0,x,-1,-8,2,9
Sa ugtP lethal,8,0,-1,3,-2,6,7,16
Bead autofluor,4035,u,4188,2868,2195,3730,u,4055

In the list so far, 3 contain two or more sulfur atoms.
#20 O=C(Cc1cccs1)NCCS(=O)(=O)N1CCN(c2ccccc2F)CC1
#23 Cc1ccc(S(=O)(=O)N(C)C)cc1NC(=S)Nc1ccc2[nH]c(=O)[nH]c2c1
#24 COc1ccc(-c2ccc(SCC(=O)Nc3nccs3)nn2)cc1OC
compound no.,20,23,24
BJeLR viability,0,0,-14
PrP 5UTR inh,-14,-16,24
Sa RN4220 lethal,3.8,2.0,3.3
Mtb hypoxia inh,5,13,-8
Mtb hypoxia inh growth,-2,7,-9
Sa ugtP lethal,5,3,0
Bead autofluor,u,4008,3343

More entries follow:
#33 CCOc1ccc2nc(N3CCC(C(=O)N4CCN(c5ncccn5)CC4)CC3)sc2c1
#34 COc1cccc2sc3cc(NCCC4CCCN4C)ccc3c(=O)c12 (stereo unspecified)
#35 COc1ccccc1C(=O)NCC(=O)Nc1cccnc1
#36 CC(c1nnnn1C(C)(C)C)N(Cc1cccnc1)Cc1ccccc1Cl (stereo unspecified)
#37 CCOc1ccccc1Nc1ccc2nonc2c1[N+](=O)[O-]
#38 COCCN1C(=O)C(O)=C(C(=O)c2cccs2)C1c1ccccc1 (stereo unspecified)
#39 COc1ccc(S(=O)(=O)Nc2ccccc2N2CCOCC2)cc1OC
#40 CC(=O)Nc1ccccc1OCc1nnc(-c2ccc(Cl)cc2)o1
compound no.,33,34,35,36,37,38,39,40
BJeLR viability,3,x,2,-9,-15,-24,x,-3
PrP 5UTR inh,-17,x,-7,-22,-18,-11,-9,-23
Sa RN4220 lethal,-14,0.2,5.2,8.9,-0.7,1.4,1.0,2.7
Mtb hypoxia inh,2,10,-4,x,4,17,7,-3
Mtb hypoxia inh growth,8,16,1,x,3,20,7,8
Sa ugtP lethal,-4,0,6,0,0,-1,3,7
Bead autofluor,4994,x,4070,2456,3959,4709,6532,4673

#41 O=C(Nc1ccc2c(c1)OCO2)O[C@@H]1C[C@H]2CCC(=O)N3CC[C@@H](C1)[C@@H]23
#42 O=C(CNc1ccc2ccccc2c1)N/N=C/c1ccc(C(=O)O)cc1
#43 CCCCN(CCCC)C(=O)C1CC=CCC1C(=O)O (stereo unspecified)
#44 CCCN1CNC(=S)N(c2cccc(C)c2C)C1
#45 Cc1cc([N+](=O)[O-])c(C(C)(C)C)cc1N
#46 CCOc1ccc(NC(=O)CSc2n[nH]c(N)n2)c([N+](=O)[O-])c1
#47 Cn1c(-c2ccccc2)cc(=O)c2ccccc21
#48 CN(c1ccc(OCC(=O)OCC(=O)Nc2ccc([N+](=O)[O-])cc2)cc1)S(=O)(=O)c1cccs1
compound no.,41,42,43,44,45,46,47,48
BJeLR viability,5,0,-8,-2,12,-6,9,x
PrP 5UTR inh,-23,-17,-15,-21,0,-25,-17,-4
Sa RN4220 lethal,x,x,0.2,5.0,9.2,6.1,3.9,3.1
Mtb hypoxia inh,x,x,-12,-1,x,2,17,9
Mtb hypoxia inh growth,x,x,-2,1,x,1,11,10
Sa ugtP lethal,x,x,-5,4,9,6,2,6
Bead autofluor,3514,1908,4660,14518,2052,9105,9714,x

#49 CC(C)CC(NC(=O)c1nc[nH]c1C(=O)NCCCCCNC(=O)OC(C)(C)C)C(=O)OC(C)(C)C (stereo unspecified)
#50 CCOC(=O)CCSCC(=O)Nc1nnc(C)s1
#51 C#CCOCCOCCOCCNc1nc(N2CCN(C(=O)[C@H](CCCCN)n3cc([C@@H](N)CC(C)C)nn3)CC2)nc(N2CCN(C(=O)[C@H](Cc3cc4ccccc4[nH]3)n3cc([C@@H](N)Cc4ccc(O)cc4)nn3)CC2)n1
#52 CN(Cc1ccccc1)C(=O)c1ccccc1N(C)S(=O)(=O)c1ccccc1
#53 Cc1ccc(C(=O)NNC(=O)c2cc3cc4ccccc4nc3s2)cc1
#54 CN(C)/C=N/C(=S)Nc1ccccc1Cl
#55 Cn1c(SCc2nnc(-c3ccccc3)o2)nc2ccccc21
#56 CC1CCN(S(=O)(=O)c2ccc(NC(=O)CCN3C(=O)c4ccccc4C3=O)cc2)CC1
compound no.,49,50,51,52,53,54,55,56
BJeLR viability,x,3,-18,x,0,0,4,0
PrP 5UTR inh,x,-10,-10,-22,-17,-20,-19,-21
Sa RN4220 lethal,-5.4,-3.8,x,5.8,13,x,9.2,-2.5
Mtb hypoxia inh,-10,10,x,9,x,x,2,-5
Mtb hypoxia inh growth,4,6,x,-4,x,x,16,2
Sa ugtP lethal,-9,-2,x,5,4,x,-1,4
Bead autofluor,x,4943,4258,6041,2613,4538,4339,19423*

#57 COc1ccccc1NC(=O)Nc1nc2ccc(S(N)(=O)=O)cc2s1
#58 Cc1ccc(S(=O)(=O)N2CCN(C(=O)CSC3CCCC3)CC2)c(C)c1
#59 O=C(CSc1nnnn1-c1ccccc1)c1ccc(O)cc1O
#60 CCOC(=O)C1CCCN(C(=O)Nc2ccccc2)C1 (stereo unspecified)
#61 COc1cc(C=O)ccc1OCC(=O)N1CCCC1
#62 Cc1ccccc1C(=O)Nc1ccc(N2CCN(C)CC2)nc1
#63 CN(CCOc1ccccc1)CC(=O)Nc1ccc(Cl)cc1[N+](=O)[O-]
#64 O=C(CCNS(=O)(=O)c1ccccc1)NCC1CCCCC1
#65 COc1ccccc1N1CCN(C(=O)c2cn(Cc3ccccc3)nc2-c2cccnc2)CC1
compound no.,57,58,59,60,61,62,63,64,65
BJeLR viability,3,-6,4,-5,8,1,3,x,x
PrP 5UTR inh,-51,-11,-7,x,-3,-11,-10,-22,-30
Sa RN4220 lethal,8.1,3.9,6.6,5.7,2.4,7.0,8.7,2.4,0.0
Mtb hypoxia inh,-3,5,3,1,1,8,0,8,6
Mtb hypoxia inh growth,3,3,4,7,-10,1,11,-1,1
Sa ugtP lethal,-6,11,-7,10,7,23,9,11,5
Bead autofluor,4731,3058,4424,7255,3407,3492,4582,4608,2895
